EPAC1 agonist – Validation qHTS for agonist of cAMP-regulated guanine nucleotide exchange factor 3 (EPAC1); EPAC1 Rap1b BODIPY-GDP exchange, fluorescence; Rap guanine nucleotide exchange factor 3 (Homo sapiens), O95398; actives 1% (n = 16,000); Potency, µM, inactives show max response, positive = active, most hits filed as activators; active = well fitted activation curve with a large enough effect; inconclusive = small, poorly fitted or top-dose-only effect; inactive = no such curve, though single readings can be large or run the other way;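 note: nearly all actives have a fitted effect of over 70% in size; series mostly up to about 76 or 150 µM; scaled to a cAMP control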
Target sequence (O95398 whole entry, looked up): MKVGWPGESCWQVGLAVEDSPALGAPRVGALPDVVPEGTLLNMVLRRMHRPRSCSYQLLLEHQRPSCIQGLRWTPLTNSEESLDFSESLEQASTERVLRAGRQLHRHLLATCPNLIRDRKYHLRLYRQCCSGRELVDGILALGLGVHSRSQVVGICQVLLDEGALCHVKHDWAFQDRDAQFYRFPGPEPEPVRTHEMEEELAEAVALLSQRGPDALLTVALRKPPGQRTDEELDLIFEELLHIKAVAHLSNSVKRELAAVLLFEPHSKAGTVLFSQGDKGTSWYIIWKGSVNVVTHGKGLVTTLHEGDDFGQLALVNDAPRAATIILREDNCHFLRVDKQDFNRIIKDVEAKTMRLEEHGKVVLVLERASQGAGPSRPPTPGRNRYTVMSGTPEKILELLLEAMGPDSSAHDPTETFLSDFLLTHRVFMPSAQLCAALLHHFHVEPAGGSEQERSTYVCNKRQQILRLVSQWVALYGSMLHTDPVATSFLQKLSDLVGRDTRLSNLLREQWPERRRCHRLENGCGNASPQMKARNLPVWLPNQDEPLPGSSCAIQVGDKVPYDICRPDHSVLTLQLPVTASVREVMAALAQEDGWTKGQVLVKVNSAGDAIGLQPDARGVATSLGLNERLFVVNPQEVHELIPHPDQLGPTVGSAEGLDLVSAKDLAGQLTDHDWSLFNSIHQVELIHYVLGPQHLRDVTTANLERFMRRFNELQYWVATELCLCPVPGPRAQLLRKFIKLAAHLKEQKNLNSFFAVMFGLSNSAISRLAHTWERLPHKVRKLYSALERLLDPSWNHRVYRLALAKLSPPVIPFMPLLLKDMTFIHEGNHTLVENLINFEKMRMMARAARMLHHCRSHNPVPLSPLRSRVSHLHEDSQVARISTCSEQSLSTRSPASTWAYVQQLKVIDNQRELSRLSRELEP
An asterisk follows results filed as active; ? = inconclusive; & = joins results of further samples; [ ] = dose if it differs, or a comment. % is set by controls: 0 for no effect and ±100 for the full control effect; potency is the fitted concentration of half-maximal effect.

EPAC1 agonist	canonical_smiles
-44%[inhibitor]	COc1ccc(NC(=O)N2CC[C@@]3(CCCN(C(=O)c4cnccn4)C3)C2)cc1
-32%[inhibitor]	CC(C)CCC[C@@H](C)[C@H]1CC(=O)C2=C3CC[C@H]4C[C@@H](O)CC[C@]4(C)[C@H]3CC[C@@]21C
-16%	COCC(=O)Nc1cc(C(=O)NC2C3CC4CC2CC(O)(C4)C3)cc2nc(-c3ccccc3)n(C)c12 (stereo not given)
-12%	COc1cccc(-c2nc(N3CCN(C)CC3)c3ccccc3n2)c1
11%	N#Cc1ccc2c(c1)N(CCCN1CCC(O)CC1)c1ccccc1S2
-36%[inhibitor]	CC(CC=O)CCCC(C)(C)O (stereo not given)
17%	COc1ccccc1CNc1ncncc1-c1cccc(C#N)c1
1%	CC(=O)C(C)=O
10%	COc1ccc(CN2CCN(C(C)=O)CC2)cc1OC1CCN(C(=O)c2ccc3ccccc3n2)CC1
-38%[inhibitor]	CC(C)NC(=O)N1CC[C@@]2(CCCN(C(=O)c3cnccn3)C2)C1
?	Cc1cccc(CNc2ncncc2-c2ccc3c(c2)OCO3)c1
-46%[inhibitor]	Fc1ccc(Nc2nc(-c3cccnc3)nc3ccccc23)cc1
-24%	CNc1ccnc(-c2ccccc2OC)n1
6%	COC(=O)N1CCC2(CCN(C(=O)Nc3cccc(C#N)c3)CC2)CC1
?	Cc1cccc(CNc2ncnc3ccc(-c4cccc(NS(C)(=O)=O)c4)cc23)c1
5%	O=C(O)CNC(=O)CNC(=O)CNC(=O)CSC(=O)c1ccccc1
-7%	COc1ccc2c(c1)c(CC(=O)O)c(C)n2C(=O)c1ccccc1
24%	CN1CCN(c2ncc3nc(-c4cn(C)c5ccccc45)c(=O)n(C[C@H]4CCCO4)c3n2)CC1
19%	COc1ccc(O)c(CN2CCC3(CC2)c2ccccc2[C@@H](NC(=O)c2cccc(F)c2)[C@@H]3OC)c1
-16%	CC(=O)NCCNc1ncncc1-c1ccccc1CN(C)C
?	Cc1ncnc2nc[nH]c12
?	COc1ccc(CN2CC[C@H]3C=CC[C@@H](C(=O)NC4CCCCC4)[C@H]3C2=O)cc1OC
20%	CNC1CCC(c2ccc(Cl)c(Cl)c2)c2ccccc21 (stereo not given)
?	Cc1ccc(SCCN2CCC(NC(=O)OCc3ccccc3)CCC2=O)cc1 (stereo not given)
-3%	Cc1nc(C(=O)N(Cc2cc3ccc(F)cc3nc2N2CCC(O)CC2)CC2CCCO2)cs1 (stereo not given)
-65%[inhibitor]	CCCCCCCCCCCCCCCC[N+](C)(C)CC
-42%[inhibitor]	Cc1cccc(Nc2ncccc2C(=O)O)c1C
-5%	COc1cc2c3cc1Oc1cc(ccc1O)C[C@@H]1c4c(cc(OC)c(O)c4Oc4ccc(cc4)C[C@@H]3N(C)CC2)CC[N+]1(C)C
-73%[inhibitor]	CCCCCC1C(=O)CCC1CC(=O)OC (stereo not given)
-2%	O=C(O)CCC/C=C\C[C@@H]1CO[C@H](C(F)(F)F)O[C@@H]1c1ccccc1O

Next section.
EPAC1 agonist	canonical_smiles
-12%	COCCNc1nc(-c2cccc(NS(C)(=O)=O)c2)nc2ccccc12
-36%[inhibitor]	O=c1c(CCc2ccccc2)nc2cncnc2n1Cc1ccccc1
0%	CN(C)CCN(Cc1ccc(Cl)cc1)c1ccccn1
-28%	COc1cc(O)cc(O)c1
-68%[inhibitor]	CCC(C)(C)OC(=O)N[C@@H](Cc1c[nH]c2ccccc12)C(=O)N[C@@H](CCSC)C(=O)N[C@@H](CC(=O)O)C(=O)N[C@@H](Cc1ccccc1)C(N)=O
-8%	C=CCN(c1ccc(Br)cc1C(=O)OC)S(C)(=O)=O
-30%[inhibitor]	CNc1cc(OC)c(C(=O)N[C@H]2CCN(Cc3ccccc3)[C@H]2C)cc1Cl
-18%	O=c1c(-c2cc(F)cc(F)c2)nc2cnc(Nc3ccccc3)nc2n1C[C@H]1CCCO1
?	CC(O)c1nc2ccccc2[nH]1 (stereo not given)
8%	CC12CCC3c4ccc(OCc5ccccc5)cc4CCC3C1CC(O)C2O (stereo not given)
-15%	COc1ccc(CN2C[C@H](C)[C@@H](CC(=O)NCc3ccccc3)C2=O)cc1
-16%	OC[C@@H](O)C(O)[C@H](O)CO
-9%	C=C(C)C1CC=C(C)CC1 (stereo not given)
-1%	Cc1nnsc1C(=O)NCC1Cc2cccc(-c3ncccn3)c2O1 (stereo not given)
16%	C/C=C(/C)C(=O)OC1C(OC(C)=O)[C@@]2(CO)C(O)C[C@@]3(C)C(=CCC4[C@@]5(C)CCC(OC6OC(C(=O)O)[C@@H](O[C@@H]7OC(CO)C(O)C(O)C7O)C(O)[C@H]6O[C@@H]6OC(CO)C(O)C(O)C6O)[C@](C)(CO)C5CC[C@@]43C)C2CC1(C)C (stereo not given in full)
-8%	O=C(O)c1[nH]n(-c2ccc(S(=O)(=O)O)cc2)c(=O)c1N=Nc1ccc(S(=O)(=O)O)cc1
-68%[inhibitor]	Cc1nc2cnc(Oc3cccc(Cl)c3)nc2n(C[C@H]2CCCO2)c1=O
-11%	Cc1ncc2c(c1CNS(=O)(=O)N(C)C)CCN(C(=O)c1ccccc1F)C2
-13%	O=C1CCN(CCc2ccccc2)CCN1CCSc1ccccc1
-68%[inhibitor]	N#CCCn1c(=O)c(-c2ccccc2)nc2cnc(OCc3ccccc3)nc21
-94%[inhibitor]	CC(C)(C)CC(C)(C)N=C1Nc2ccccc2NC12C[C@H]1CCC(=O)N3CC[C@@H](C2)[C@@H]13 (stereo not given in full)
?	CCOC(=O)CNS(=O)(=O)Cc1ccccc1
-5%	CN(Cc1ccco1)c1cc(-c2ccc3c(c2)OCO3)ncn1
?	CC1=CC(=O)c2ccccc2C1=O
19%	CC(NC(=O)c1cc(F)ccc1F)c1nnc2n1CCN(Cc1ccccc1O)CC2 (stereo not given)
-22%	O=C(O)c1ccccc1-c1ccc(C(F)(F)F)cc1
17%	Cn1cccc1C(=O)N1CCC[C@@]2(CCN(c3cccc(-c4ccccc4)c3)C2)C1
-17%	CC1CCC(C(C)C)[C@H](O)C1 (stereo not given in full)
20%	O=C(c1nc2ncccn2n1)N1CCOc2ccc(C(O)C(c3ccccc3)c3ccccc3)cc2C1 (stereo not given)
?	CN(C)c1ccc(/C=C2\C(=O)/C(=C\c3ccc(N(C)C)cc3)c3ccccc32)cc1

Sorted by molar mass (falling): some entries from above.
EPAC1 agonist	canonical_smiles
19%	CC(NC(=O)c1cc(F)ccc1F)c1nnc2n1CCN(Cc1ccccc1O)CC2 (stereo not given)
-68%[inhibitor]	N#CCCn1c(=O)c(-c2ccccc2)nc2cnc(OCc3ccccc3)nc21
-12%	COCCNc1nc(-c2cccc(NS(C)(=O)=O)c2)nc2ccccc12
17%	COc1ccccc1CNc1ncncc1-c1cccc(C#N)c1
-22%	O=C(O)c1ccccc1-c1ccc(C(F)(F)F)cc1
-16%	OC[C@@H](O)C(O)[C@H](O)CO

(list continues)
EPAC1 agonist	canonical_smiles
?	O=C(/C=C/c1ccc2c(c1)OCO2)c1cccs1
-7%	Cn1cnc2c(F)c(Nc3ccc(Br)cc3Cl)c(C(=O)NOCCO)cc21
-11%	O=C(/C=C/c1ccc(O)c(O)c1)NC(=O)c1ccccc1O
-74%[inhibitor]	COC(=O)N1CCC2(CCN(C(=O)Nc3ccc(OC)cc3)CC2)CC1
-5%	Cc1ncc(-c2ccc(F)cc2)c(C2CCCN(Cc3cccc(O)c3)C2)n1 (stereo not given)
-11%	Cn1c(=O)c(-c2ccc(Cl)cc2)nc2cnc(N3CCNCC3)nc21
-13%	C[C@@H](C[C@H](N)C(=O)O)C(=O)O
?	CCC(C(N)=O)c1ccccc1 (stereo not given)
-24%	Cc1nc2cnc(N3CCN(C)CC3)nc2n(C)c1=O
-21%	Cc1c(C(=O)NCC2CC2)sc2ncnc(NCCN3CCCCC3)c12
-3%&1%	O=C1CCc2c(ccc3ccccc23)O1
?	CN(C)c1ncc2nc(-c3ccc(Cl)cc3)c(=O)n(C[C@H]3CCCO3)c2n1
-10%	OCC1=CC[N+]2(Cc3ccccc3)CCC(O)[C@@H]12 (stereo not given in full)
-57%[inhibitor]	N#Cc1cccc(NC(=O)N2CC[C@@]3(CCCN(C(=O)c4ccco4)C3)C2)c1
-11%	CC[C@H](C)[C@H](NC(=O)[C@H](CCCN=C(N)N)NC(=O)[C@H](CCCN=C(N)N)NC(=O)[C@H](CC(C)C)NC(=O)[C@H](Cc1ccccc1)NC(=O)CNC(=O)CN)C(=O)N[C@@H](CCCN=C(N)N)C(=O)N1CCC[C@H]1C(=O)N[C@@H](CCCCN)C(=O)N[C@@H](CC(C)C)C(=O)N[C@@H](CCCCN)C(=O)O
1%&-27%	CCOC(=O)C1=C(COCCN)NC(C)=C(C(=O)OC)C1c1ccccc1Cl (stereo not given)
-3%	CS(=O)(=O)Nc1cccc(-c2cncnc2NCc2ccccc2)c1
?	O=c1c(-c2cc(F)cc(F)c2)nc2cnc(N3CCNCC3)nc2n1Cc1ccc(F)cc1
20%	COc1ccc(OC)c(-c2cc(Cl)c3c(c2)CC(CNC(=O)/C=C/c2ccccn2)O3)c1 (stereo not given)
-16%	CC(C)(C)Cn1nc(-c2ccc(Cl)cc2)c2c(N)ncnc21
-29%	CCN(CC)C(=O)[C@]1(c2ccccc2)C[C@@H]1CN
-22%	CN(C)c1ccc(-c2cncnc2N(C)Cc2ccco2)cc1
-19%	C[C@@H]1CCC2[C@](C)(CO)[C@@H](O)CC[C@]2(C)[C@]12CCC(CO)(CCO)O2 (stereo not given in full)
-50%[inhibitor]	CCOC(=O)/C=C1\CN(Cc2ccc(OC)cc2)S(=O)(=O)c2ccc(C(F)(F)F)cc21
-27%	CCCCC(CC)COC(=O)c1ccc(N(C)C)cc1 (stereo not given)
-15%	C[C@]12CCC(=O)C=C1CC[C@@H]1[C@H]2[C@@H](O)C[C@@]2(C)[C@H]1CC[C@]2(O)C(=O)CO
16%	Cc1cnc(CNc2ncncc2-c2cccc(C#N)c2)cn1
-13%&-34%	CNCCc1ccccn1
6%	O=S(=O)(NCc1ccc(F)cc1)c1ccc(Br)cc1Br
-37%[inhibitor]	C=CC(C)(O)CCCC(C)CCCC(C)CCCC(C)C (stereo not given)

Entries above with a furan ring, fused or not (three):
EPAC1 agonist	canonical_smiles
-5%	CN(Cc1ccco1)c1cc(-c2ccc3c(c2)OCO3)ncn1
-57%[inhibitor]	N#Cc1cccc(NC(=O)N2CC[C@@]3(CCCN(C(=O)c4ccco4)C3)C2)c1
-22%	CN(C)c1ccc(-c2cncnc2N(C)Cc2ccco2)cc1

Later entries.
EPAC1 agonist	canonical_smiles
15%	Cc1ccnn1CC(=O)N1CCOc2c(cc(-c3csc4ccccc34)cc2OC2CCOC2)C1 (stereo not given)
-95%[inhibitor]	Fc1ccc(C(c2ccc(F)cc2)N2CCN(CC=Cc3ccccc3)CC2)cc1
12%	CN1CCN(c2ncc3nc(-c4ccc(Cl)cc4)c(=O)n(Cc4cccs4)c3n2)CC1
-13%	COc1cccc(-n2c(SC)nnc2C2CCN(Cc3cccc(OC)c3O)CC2)c1
-3%	NCCCC[C@H](N[C@@H](CCc1ccccc1)C(=O)O)C(=O)N1CCC[C@H]1C(=O)O
?	N#CCCn1c(=O)c(-c2cccc(C#N)c2)nc2cnc(Oc3cccc(Cl)c3)nc21
3%	COc1cccc2c1CCC1=CC(=O)CC[C@@]12C
10%	O=C(/C=C/c1ccccc1)OCc1ccccc1
-10%&4%	N[C@@H](CO)C(=O)O
-127%[inhibitor]	CCCCCCCCCCCCN1[C@@H](CC(=O)O)c2cc(C(F)(F)F)ccc2S1(=O)=O
-12%	CC(C)(O)C1CC[C@@]2(C)C3CCC4[C@@]5(C)CCCC(C)(C)C5C(O)C[C@]4(C)[C@]3(C)CC[C@@H]12 (stereo not given in full)
19%	COc1cc(=O)n2c(c1C(=O)NC(C)c1ccco1)CCN(C(=O)c1cc(C)cc(C)c1)CC2 (stereo not given)
1%&-2%&9%&5%	O=C(CCCN1CCC(O)(c2ccc(Cl)cc2)CC1)c1ccc(F)cc1
-25%	CN(C)c1ncc2nc(-c3ccc(Cl)cc3)c(=O)n(C3CC3)c2n1
-25%	CCCC[C@H]1COCCS(=O)(=O)N1Cc1ccc(Br)cc1
-43%[inhibitor]	O=C(c1cnccn1)N1CCC[C@@]2(CCN(c3ccccn3)C2)C1
?	CC1(C)C[C@@H]2C(=O)CCC3O[C@@]3(C)CCC21 (stereo not given in full)
4%	CC(=O)C[C@H]1c2cc(F)ccc2S(=O)(=O)N1c1ccc(N(C)C)cc1
-27%	CC[C@H]1OC(=O)[C@H](C)[C@@H](O[C@H]2C[C@@](C)(OC)[C@@H](O)[C@H](C)O2)[C@H](C)[C@@H](O[C@@H]2O[C@H](C)C[C@H](N(C)C)[C@H]2O)[C@](C)(O)C[C@@H](C)/C(=N\OCOCCOC)[C@H](C)[C@@H](O)[C@]1(C)O
2%	Cc1ccnc(N)c1
13%	Cc1ccc(CN2C[C@@H](Sc3nc(C)cc(C)n3)C[C@H]2C(=O)N2CCN(c3ccccc3F)CC2)cc1
4%&-7%	NC(=O)CC[C@@H]1NC(=O)[C@H](Cc2ccccc2)NC(=O)[C@H](Cc2ccc(O)cc2)NC(=O)CCSSC[C@@H](C(=O)N2CCC[C@H]2C(=O)N[C@@H](CCCN=C(N)N)C(=O)NCC(N)=O)NC(=O)[C@H](CC(N)=O)NC1=O
3%&3%	Cc1c(Nc2ncccc2C(=O)O)cccc1C(F)(F)F
0%	CCNC(=O)[C@@H]1CCCN1C(=O)[C@H](CCCN=C(N)N)NC(=O)[C@H](CC(C)C)NC(=O)[C@@H](Cc1c[nH]c2ccccc12)NC(=O)[C@H](Cc1ccc(O)cc1)NC(=O)[C@H](CO)NC(=O)[C@H](Cc1c[nH]c2ccccc12)NC(=O)[C@H](Cc1cnc[nH]1)NC(=O)[C@@H]1CCC(=O)N1
9%	FC(F)(F)c1ccccc1-c1cncnc1NCc1ccccc1
20%	O=C1[C@H]2[C@H](C=CC[C@H]2C(=O)N2CCN(c3ccccc3)CC2)CCN1Cc1ccc(Cl)c(Cl)c1

A portion of the library; count on the stated rates, not on these rows.
